Bioassay records from PubChem.
Mtb growth: Mycobacterium tuberculosis H37Rv growth inhibition, putative kinase inhibitor library, confirmatory dose response (AID 2842); M. tuberculosis H37Rv growth inhibition; higher % means a stronger effect; some inactives read as strong as hits; one-dose inhibition, % at 10 µg/mL; IC90 in µg/mL for titrated hits; 24,000 compounds, 5.2% hits;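 active = confirmed in a dose series; inconclusive = mostly over 85% at the one dose but not retested; inactive = below 85% or not confirmed; about a fifth of its hits are not listed in these tables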;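 note: bacteria incubated one week before Alamar blue readout; 0% = bacteria only wells and 100% = bacteria with high antibiotic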
Numbers without * were called inactive; u = inconclusive. The list is partial; rates above refer to the full screens.

SMILES	Mtb growth
COc1ccc(NS(=O)(=O)c2c[nH]c(=O)[nH]c2=O)c(OC)c1	-2%
CSc1nnc(NC(=O)c2ccc3c(c2)OCO3)s1	9%
O=C(Nc1nnc(-c2ccccc2)o1)c1ccc(NS(=O)(=O)c2ccc(F)cc2)cc1	78%
Cc1ccnc(SCc2cc(=O)c(OC(=O)c3ccc(Br)o3)co2)n1	4%
COc1ccc2cc(CCNC(=O)c3ccc4ccccc4c3)c(=O)[nH]c2c1	-7%
COc1ccc(NC(=O)c2oc3ccccc3c2NC(=O)c2ccc(C)c(C)c2)cc1	-5%
CCOc1ccc(C(=O)c2cn(Cc3ccc(F)cc3)c3cc4c(cc3c2=O)OCO4)cc1	2%
Cc1ccc(N=C2NC(=O)C(Cc3ccccc3Cl)S2)cc1 (stereo unspecified)	25µg/mL*
O=c1[nH]c(SCc2cccc(C(F)(F)F)c2)nc2[nH]ncc12	21%
CC1CCc2[nH]c3ccc(C(=O)O)cc3c2C1 (stereo unspecified)	5%
Cc1ccc2cc(CCNC(=O)c3ccco3)c(=O)[nH]c2c1	-8%
COc1ccc([N+](=O)[O-])cc1NC(=O)CSc1ccc(C)cc1	-17%
CCN1CCc2c(sc(NC(=O)c3ccc(S(=O)(=O)N4CCCCCC4)cc3)c2C(N)=O)C1	4%
Cn1cc(S(=O)(=O)CC(=O)Nc2ccc(F)cc2)c2ccccc21	4%
Cc1nnc(NC(=O)CSc2nnc(-c3cccnc3)o2)s1	-7%
Cn1c(=O)[nH]c(=O)c2c1nc(NCCCN1CCOCC1)n2Cc1ccc(F)cc1	-4%
Cc1c(C(=O)Nc2c(C(=O)Nc3ccc(F)cc3)oc3ccccc23)cccc1[N+](=O)[O-]	51%
CN(C)c1ccc(Nc2nc(-c3ccc([N+](=O)[O-])cc3)nc3ccccc23)cc1	21%
COC(=O)c1ccc(NC(=O)CSc2nnc(C)n2N)cc1	-10%
O=C(Nc1cccc(-c2nc3ccccc3s2)c1)c1nc2ccccc2s1	-14%

Next section; it opens with the 2 that closed the last part.
SMILES	Mtb growth
COC(=O)c1ccc(NC(=O)CSc2nnc(C)n2N)cc1	-10%
O=C(Nc1cccc(-c2nc3ccccc3s2)c1)c1nc2ccccc2s1	-14%
COc1ccc(-c2cc3ccc(OS(=O)(=O)c4ccc(C)cc4)cc3oc2=O)cc1OC	-6%
CC(=O)NC(=O)c1cc2ccccc2oc1=Nc1ccc(F)cc1	1%
O=C(Nc1ccc2c(c1)OCO2)c1oc2ccccc2c1NC(=O)C(c1ccccc1)c1ccccc1	-10%
Cc1ccc(S(=O)(=O)N(C)CCCC(=O)Nc2cc(C)ccc2C)cc1	7%
O=C1c2ccccc2C(=O)c2cc(S(=O)(=O)N3CCN(CCO)CC3)ccc21	47%
C=CCSc1nc2c(c(=O)n(C)c(=O)n2C)n1Cc1cccc(C)c1	6%
CCOc1ccccc1-n1c(=O)[nH]c2c(C(N)=O)nc(-c3cccc(C)c3)nc21	8%
Cc1[nH]c2ccc(N3CCOCC3)cc2c(=O)c1CN(C)Cc1ccccc1	-3%
CCOC(=O)c1c(-c2ccccc2)c2cc([N+](=O)[O-])ccc2[nH]c1=O	9%
Cc1ccc(C)c(-c2nnc(NC(=O)c3ccc(S(=O)(=O)N4CCc5ccccc5C4)cc3)o2)c1	-16%
Cc1c(C)n2c3c(=O)[nH]c(=O)n(C)c3nc2n1CCNc1ccc(Oc2ccccc2)cc1	2%
CCN1CCc2c(sc(NC(=O)C(C)(C)C)c2C(N)=O)C1	-8%
O=C1C(=O)N(CCCN2CCOCC2)C(c2ccncc2)/C1=C(\O)c1ccncc1 (stereo unspecified)	-11%
Cc1ccnc(SCc2cc(=O)c(OC(=O)c3ccc4ccccc4c3)co2)n1	-11%
Cc1ccccc1NC(=O)CSc1ccc2nnc(-c3ccncc3)n2n1	-4%
O=C(CSc1nc(-c2cccc(F)c2)[nH]c1-c1ccccc1)Nc1ccc2c(c1)OCO2	5.1µg/mL*
CN(C)CCCN1C(=O)C(=O)/C(=C(/O)c2ccncc2)C1c1ccc(Cl)c(Cl)c1 (stereo unspecified)	-13%
Cc1ccc(C)c(-c2nnc(NC(=O)/C=C/c3cccc([N+](=O)[O-])c3)o2)c1	-7%
O=C(CSc1ccc2nnc(-c3ccc(F)cc3)n2n1)NCc1ccc(F)cc1	3%
CCn1c(N/N=C/c2ccccc2O)nc2c1c(=O)n(C)c(=O)n2C	-24%

Looked up above.
Reading of O=C1c2ccccc2C(=O)c2cc(S(=O)(=O)N3CCN(CCO)CC3)ccc21 under Mtb growth: 47%
Reading of O=C(Nc1ccc2c(c1)OCO2)c1oc2ccccc2c1NC(=O)C(c1ccccc1)c1ccccc1 under Mtb growth: -10%

(cont.)
SMILES	Mtb growth
O=C(CSc1ccc2nnc(-c3cccnc3)n2n1)Nc1ccc([N+](=O)[O-])cc1	-5%
CN1CCN(C(CNC(=O)C(=O)Nc2cccc([N+](=O)[O-])c2)c2ccc(F)cc2)CC1 (stereo unspecified)	-7%
CCOC(=O)c1nn(-c2ccccc2)c(=O)c2c(NC(=O)c3ccc(Br)o3)scc12	1%
COc1cccc(N2C(=O)N(c3cccc([N+](=O)[O-])c3)C3CS(=O)(=O)CC32)c1 (stereo unspecified)	0%
CC(=O)NN1C(=O)/C(=C/c2cccc(O)c2)SC1=S	-5%
Cc1ccc(N2CC(NC(=O)NCCN(C)C)CC2=O)cc1C (stereo unspecified)	9%
Cc1ccc(NC(=O)Cn2c(=O)n(Cc3ccco3)c(=O)c3oc4ccccc4c32)c(C)c1	6%
O=C(CN1N=NC2C(=O)N(c3ccc(F)c(Cl)c3)C(=O)C21)Nc1cc(F)ccc1F (stereo unspecified)	-8%
CCc1nnc(NC(=O)C(C)Cl)s1 (stereo unspecified)	3%
CC(C)(C)c1ccc(C(=O)N2CC(=O)Nc3ccc(Cl)cc3C2c2ccc(F)cc2)cc1 (stereo unspecified)	9.9µg/mL*
CCc1cccc(OCC2Cn3c(nc4c3c(=O)n(C)c(=O)n4C)O2)c1 (stereo unspecified)	6%
Nc1nc(SCC(=O)NCc2ccco2)[nH]c(=O)c1NC(=O)c1cccs1	-10%
COc1ccc(-c2ccc(=O)n(CCNC(=O)COc3ccccc3)n2)cc1	-5%
CCN(CC)CCCNc1c(Cc2ccccc2)c(C)c(C#N)c2nc3ccccc3n12	-22%
CCOC(=O)c1sc(NC(=O)CSc2nc3c(cnn3-c3ccc(F)cc3)c(=O)[nH]2)c(C(=O)OCC)c1C	-1%
O=C(CSc1nc2c(c(=O)n1-c1ccccc1)SCC2)NCC1CCCO1 (stereo unspecified)	-7%
NC(=O)c1c(NC(=O)c2ccc(Br)s2)sc2c1CCN(Cc1ccccc1)C2	9%
Cc1cc(C)c2nc(NC(=O)c3ccc(C(=O)c4ccccc4)cc3)sc2c1	4%
CN(C)c1ccc(C(=O)Nc2nnc(-c3ccc(Cl)cc3)o2)cc1	u
O=C(CSc1nc2c([nH]c3ccccc32)c(=O)n1-c1ccccc1F)N1CCCc2ccccc21	65%

5 compounds drawn at random from the list so far:
SMILES	Mtb growth
COc1ccc(-c2ccc(=O)n(CCNC(=O)COc3ccccc3)n2)cc1	-5%
COc1ccc([N+](=O)[O-])cc1NC(=O)CSc1ccc(C)cc1	-17%
Cc1[nH]c2ccc(N3CCOCC3)cc2c(=O)c1CN(C)Cc1ccccc1	-3%
Cc1ccccc1NC(=O)CSc1ccc2nnc(-c3ccncc3)n2n1	-4%
CCN1CCc2c(sc(NC(=O)c3ccc(S(=O)(=O)N4CCCCCC4)cc3)c2C(N)=O)C1	4%

(listing goes on)
SMILES	Mtb growth
COc1cc(Cl)c(C)cc1-n1ccnc(NCC(C)c2ccccc2)c1=O (stereo unspecified)	60%
CS(=O)(=O)c1cccc(-c2nnc(NC(=O)CCc3ccccc3)o2)c1	-3%
COc1cccc(OC)c1C(=O)Nc1nc2ccc3nc(C)sc3c2s1	-13%
COc1ccc(C(=O)c2cn(Cc3ccccc3F)c3ccccc3c2=O)cc1	10%
O=C(Cn1cnc2c(cnn2-c2cccc(Cl)c2)c1=O)Nc1cccc(C(F)(F)F)c1	2%
COc1cc(/C=C2\Oc3c(ccc(O)c3CN3CCN(CCO)CC3)C2=O)cc(OC)c1OC	-6%
CCOc1ccc(S(=O)(=O)NC(=NC)c2ccccc2)cc1	-3%
CCOc1ccc(-c2nnc3c4ccccc4n(Cc4ccccc4OC)cc2-3)cc1	9%
c1ccc(OCCSc2nnnn2-c2ccccc2)cc1	25%
Cc1cccc(Cn2c(Sc3nc(C)cs3)nc3c2c(=O)[nH]c(=O)n3C)c1	6%
N=c1nnc2c3ccccc3ccc2n1O	41µg/mL*
Cc1ccc(-c2[nH]c(-c3ccc(F)cc3)nc2SCC(=O)Nc2ccc3c(c2)OCO3)cc1	72%
COc1ccc(Cl)cc1C(=O)Nc1c(C(=O)Nc2ccc(Cl)cc2)oc2ccccc12	4%
O=C(NC1CC(=O)N(c2ccc(F)cc2)C1)c1cccc(Br)c1 (stereo unspecified)	0%
Cc1ccnc(SCc2cc(=O)c(OC(=O)COc3ccc(F)cc3)co2)n1	-10%
CCOc1ccc(/C=C/C(=O)N2CCCCC2)cc1OC	7%
CSc1nc2cc(NC(=S)NC(=O)c3ccccc3)ccc2s1	6.9µg/mL*
NS(=O)(=O)c1ccc(NC(=O)NC2CC(=O)N(c3ccccc3)C2)cc1 (stereo unspecified)	0%
N#C/C(=C\c1ccc(-c2ccc([N+](=O)[O-])cc2)o1)c1nc(-c2cccs2)cs1	9%
Cc1nc2sc(C(c3ccc(Br)cc3)N3CCN(C(=O)c4ccco4)CC3)c(O)n2n1 (stereo unspecified)	4%

Further compounds follow.
mol	Mtb growth
Cc1cc(C)cc(Nc2cc(C)nc3c(-c4ccccc4)cnn23)c1	2.7µg/mL*
O=C(CSc1nc2c(c(=O)n1-c1ccc(Cl)cc1)SCC2)Nc1ccc(Cl)cc1	10%
COc1cccc(Nc2nc3ccc(OC)cc3s2)c1	23µg/mL*
Cc1c(NC(=O)CSc2cccc3cccnc23)c(=O)n(-c2ccccc2)n1C	5%
Cc1nnc(SCCn2c(N3CCC(Cc4ccccc4)CC3)nc3c2c(=O)n(C)c(=O)n3C)s1	12%
c1ccc(CN2CCN(c3ncnc4c3cnn4-c3ccccc3)CC2)cc1	20%
COc1ccc(C2CC(c3cccc(NS(C)(=O)=O)c3)=NN2C(C)=O)cc1O (stereo unspecified)	1%
CC1(C)Cc2c(sc(NC(=O)c3nc4ccccc4s3)c2C(N)=O)C(C)(C)N1	-4%
COc1ccccc1CNC(=O)NC1CC(=O)N(c2ccc(F)cc2)C1 (stereo unspecified)	1%
COc1ccc2cc(CCNC(=O)c3ccc([N+](=O)[O-])cc3)c(=O)[nH]c2c1	1%
CCOc1cc(C(=O)Nc2nnc(-c3ccc(S(C)(=O)=O)cc3)o2)cc(OCC)c1OCC	27%
Cc1ccc2cc(CCNC(=O)Cc3ccc(F)cc3)c(=O)[nH]c2c1	10%
Cc1ccccc1C(=O)Nc1c(C(=O)Nc2ccc(F)c(F)c2)oc2ccccc12	-4%
Cc1cc(NC(=O)CSc2nc(-c3ccc([N+](=O)[O-])cc3)nc3c2c(=O)n(C)c(=O)n3C)no1	-9%
COc1cc(/C=C(\C#N)c2nc(-c3ccc([N+](=O)[O-])cc3)cs2)ccc1OC(C)=O	2%
COc1ccc2nc(Nc3nc(-c4ccccn4)cs3)sc2c1	<0.2µg/mL*
O=C1c2ccccc2C(=O)c2cc(S(=O)(=O)NCc3ccccc3)ccc21	11%
O=c1[nH]nc(Sc2ncnc3nc[nH]c23)c(=O)[nH]1	-17%
O=C(CN1C(=O)c2ccccc2C1=O)Nc1nc(-c2ccc(F)cc2)cs1	-13%
Cc1cccc(C(=O)Nc2sc3c(c2C#N)CC(C)(C)NC3(C)C)c1	0%
O=c1cc(/C=C/c2ccccc2)[nH]c2ccccc12	1%
CCOC(=O)c1nn(-c2ccc(OC)cc2)c(=O)c2c(NC(=O)c3ccc(F)cc3)scc12	-5%
CCCCC(=O)Nc1nnc(-c2cccc(C)c2)s1	11%
COc1cccc(/C=N/Nc2nc(=O)[nH]nc2C)c1O	0.5µg/mL*
COc1ccc(C(=O)Nc2nc3ccc(S(=O)(=O)N4CCCC4)cc3s2)c(OC)c1	6%
Cc1ccc(Nc2nc(NCCO)nc(N)c2[N+](=O)[O-])cc1C	-11%
O=C(c1ccco1)N1CCN(c2cc(=O)n(Cc3ccc(F)cc3)c(=O)[nH]2)CC1	1%
CCOC(=O)c1oc2ccccc2c1NC(=O)c1ccccc1OC	84%
O=C(COc1ccc(Cl)cc1)Nc1nnc(-c2ccc(Br)cc2)o1	-7%
O=C(Nc1nnc(-c2ccco2)o1)c1ccc([N+](=O)[O-])o1	100%
COc1ccccc1-n1ncc2c(=O)[nH]c(SC)nc21	-1%
O=C(Oc1ccccc1)Oc1ccc2ccc(=O)oc2c1	56%
CCC(C)NC(=O)c1cccc([N+](=O)[O-])c1C (stereo unspecified)	3%
O=C(NCCCN1CCCC1=O)C(=O)Nc1cc2c3c(c1)CCN3C(=O)CC2	-24%
O=C(Nc1nc(-c2ccc(I)cc2)cs1)C1COc2ccccc2O1 (stereo unspecified)	84%
CC(=O)CSc1nc2c(c(=O)n(C)c(=O)n2C)n1Cc1ccc(F)cc1	-1%
CC(C)OCCCNc1nc2c(c(=O)[nH]c(=O)n2C)n1CCCOc1ccccc1	5%
O=C(Nc1nnc(-c2ccc3c(c2)OCCO3)o1)c1cc2cc([N+](=O)[O-])ccc2s1	5%

Structural class: the entries above containing a CF3 group (two)
mol	Mtb growth
O=c1[nH]c(SCc2cccc(C(F)(F)F)c2)nc2[nH]ncc12	21%
O=C(Cn1cnc2c(cnn2-c2cccc(Cl)c2)c1=O)Nc1cccc(C(F)(F)F)c1	2%
